Screens as filed in PubChem.
AID504770: E. coli YBA685 growth inhibition, screen for V. cholerae RctB inhibitors; E. coli YBA685 rctB-dependent plasmid, OD600 growth, 3 h; stronger effect = lower value; z-score (test concentration not listed); 130,000 compounds, 0.27% hits; AID 504770;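 active = z-score under -2 on both plates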;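 also: wells of about 30 µL received 100 nL stock; score is relative to mean and SD of the test wells; the first replicate is given; strong numbers were not always called active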
Ba CapD inh: inhibitors of Bacillus anthracis CapD enzyme; purified CapD enzyme, fluorescence intensity read-out; stronger effect = lower value; some hits fall short of the stated cut; z-score (no concentration beside the values); 140,000 compounds, 0.23% hits; AID 492967;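 active = z-score under -4 in either of two replicates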;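 also: stock transfer was 100 nL into about 40 µL; score is relative to mean and spread of the plate; one replicate is shown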
Starred values were filed as active, the others as inactive; . = not tested or not shown.

compound	AID504770	Ba CapD inh
CN1CCN(c2ccc(Cl)cc2NC(=O)c2cccc(S(=O)(=O)N3CCc4ccccc43)c2)CC1	-0.4	.
O=C(CCC1COc2ccccc2O1)N1CCCC1 (centres undefined)	1.25	-0.05
Cc1nc(SCC(=O)Nc2cccc(C(=O)O)c2)c(C#N)c(C)c1C	.	-0.065
CC(=O)O[C@H]1C[C@H](O[C@H]2[C@@H](O)C[C@H](O[C@H]3[C@@H](O)C[C@H](O[C@H]4CC[C@@]5(C)C(CCC6C5C[C@@H](O)[C@]5(C)[C@@H](C7=CC(=O)OC7)CC[C@]65O)C4)O[C@@H]3C)O[C@@H]2C)O[C@H](C)[C@H]1O[C@@H]1O[C@H](CO)[C@@H](O)[C@H](O)[C@H]1O (some centres undefined)	0	1.14
CCN1C(=O)C(C(O)c2cc(OC)ccc2OC)SC1=Nc1ccc(C(=O)OC)cc1 (centres undefined)	0.75	0.4
COc1ccc(/C=C2\C=C(c3ccccc3)N(c3cccnc3)C2=O)cc1Br	.	0.405
OC(c1ccc2c(c1)OCO2)c1nccc2ccccc12 (centres undefined)	1.15	-0.955
Cc1ccc(COn2c(-c3ccc(Cl)cc3Cl)nc3ncccc32)cc1	.	2.78
N#Cc1c(Cl)cccc1Oc1ccc(-c2nnco2)cc1	-0.1	0.155
Clc1ccc(-c2cc(-c3ccccc3)n[nH]2)cc1	1.05	-0.37
O=C(CN1CCN(S(=O)(=O)/C=C/c2ccccc2)CC1)NCC(F)(F)F	-0.75	.
COc1ccc(/C(O)=C2\C(=O)C(=O)N(CCN(C)C)C2c2ccccc2)cc1Cl (centres undefined)	0.3	-0.335
COc1cc(NC(=O)CSc2nc3[nH]ncc3c(=O)n2-c2cccc(C(F)(F)F)c2)cc(OC)c1OC	.	-0.085
COCc1c(Br)c(C)nc2oc(C(=O)c3ccccc3)c(N)c12	2.65	.
Cc1cc(=O)[nH]c(SCC(=O)N2CCN(S(=O)(=O)c3ccccc3)C2)n1	-0.95	-0.115
Cn1cccc1C=Nc1ccc(S(N)(=O)=O)cc1	0.15	-0.415
COC(OC)C12c3ccccc3C(c3ccccc31)C1C(=O)N(Cc3ccc(F)cc3)C(=O)C12 (centres undefined)	.	-0.665
CC1CN(Cc2oc(CO)cc(=O)c2O)CC(C)O1 (centres undefined)	-0.7	-0.41
O=C(Nc1cccc(C(F)(F)F)c1)Nc1nccc(-c2cccs2)n1	.	-0.665
C/C(=N\OC(=O)c1ccc(Cl)cc1)c1ccc(F)cc1	.	-0.025
O=C(COc1nc2ccccc2nc1N1CCOCC1)N1CCc2ccccc21	0.3	.
O=[N+]([O-])c1cccc(-c2ncon2)c1	.	0.28
CC1(C)CC(=O)C2=C(C1)N(c1ccccc1C(F)(F)F)C(N)=C(C#N)C2c1ccsc1 (centres undefined)	.	1.08
COc1cc(OC)c(C(=O)OCC(=O)c2ccc3c(c2)NC(=O)CO3)cc1OC	-1	.
COc1ccc(NC2CS(=O)(=O)CC2NCc2ccco2)cc1 (centres undefined)	0.1	0.445
O=c1[nH]c2cccc(Cl)c2n(CCNc2ncc(C(F)(F)F)cc2Cl)c1=O	-1	-0.545
O/N=C1/CCCc2nonc21	.	0.435
CCN1CCN(c2ccc(NC(=O)CCc3c(C)nc4cc(-c5ccc(OC)cc5OC)nn4c3C)cc2)CC1	0.45	3.08
COC(=O)Cn1cnc2ccccc2c1=O	0.25	.
Cc1ccc(N2CC(C(=O)NCc3ccccn3)CC2=O)cc1 (centres undefined)	0.65	-0.25
COC(=O)CCCNC(=O)c1nc(C)oc1C(F)(F)F	.	-0.35
COc1ccc(-n2c(-c3ccc(C)cc3)csc2=N)cc1	.	0.645
COc1ccc(N2CCN(C(=O)CCNS(=O)(=O)c3ccccc3)CC2)cc1	1.1	-0.155
O=C(Nc1ccccc1)Nc1ccccc1C(=O)O	.	1.67
O=S(=O)(c1ccccc1Cl)N1CCN(c2ccccc2Cl)CC1	.	0.055
CCOc1cccc(C(=O)NNC(=O)OCCN2CCN(Cc3cc(OC)c4c(c3)OCO4)CC2)c1	.	-0.515
CN(C)c1ccc(P(=S)(N2CCCCC2)N2CCCCC2)cc1	0.35	.
Ic1ccc2c3ccc(I)cc3c3[nH]c(-c4cccc(Oc5ccccc5)c4)nc3c2c1	.	-0.07
CN(C)C(=O)c1cccnc1SCCS(=O)(=O)c1ccccc1	0.3	-0.025
c1ccc(Nc2ccccn2)nc1	-0.5	-0.225
CCOc1cc(C2C3=C(CC(C)(C)CC3=O)OC3=C2C(=O)CC(C)(C)C3)ccc1OC(=O)N1CCOCC1	.	-0.23
O=C(CSc1ccc([N+](=O)[O-])cc1[N+](=O)[O-])Nc1ccc(F)cc1	.	0.335
COc1cc(C2C(N3C(=O)c4ccccc4C3=O)C(=O)N2c2cc(C)cc(C)c2)cc(OC)c1OC (centres undefined)	.	-0.36
COc1ccc(CCNC(=O)CSc2nc3ccccc3c(=O)n2CCC(=O)NCCc2ccccc2)cc1OC	.	0.355
CCCCc1n[nH]c2c1/C(=N\O)CC(c1ccccc1)C2 (centres undefined)	-0.05	0.4
Cc1cccc(OCC(=O)OC2CCN(C)CC2)c1	-0.75	.
Cc1ccc2nc(NC(=O)NC3CC(=O)N(c4ccc5c(c4)OCCO5)C3)sc2c1 (centres undefined)	1.2	.
CN(C(=O)Cn1nnc(-c2cccs2)n1)C1CCCc2ccccc21 (centres undefined)	0	.
CCOc1ccc2c(c1)sc(=NC(=O)c1cc3ccccc3cc1OC)n2C	-0.75	0.085
CN(C)/N=C/C=C1\CC/C(=C\c2ccccc2)C1=O	-0.25	.
CCC(C)N1C(=O)S/C(=C/c2ccc3c(c2)n(C)c(=O)n3C)C1=O (centres undefined)	-0.8	3.29
O=C(NCCCN1CCCC1)c1cc2c(Cl)nc3ccccc3c2s1	-0.55	-0.19
O=C(O)CCC(=O)Nc1ncccc1OCc1ccc(Cl)c(Cl)c1	-0.5	1.23
O=C(CCc1c[nH]c2ccccc12)N1CCN(S(=O)(=O)c2ccc3c(c2)OCCO3)CC1	0.1	.
Cc1ccc(S(=O)(=O)N2CCN(c3cnn(-c4ccccc4)c(=O)c3Cl)CC2)cc1	1.15	-0.19
NNc1nc(-c2ccccc2Cl)c2cc(Br)ccc2n1	.	-0.9
COc1ccc(S(=O)(=O)N(CCC#N)Cc2cccnc2)cc1	.	0.435
CCC(=Nc1ccc(N)cc1)C1=C(O)CC(C)(C)CC1=O	-0.4	-1.39
CCCCNC(=S)N1CC2(C)CC1CC(C)(C)C2 (centres undefined)	-0.6	.
CCOC(=O)N1CCN(S(=O)(=O)c2ccc(C(=O)Nc3nc4c(cc5c6c(cccc64)CC5)s3)cc2)CC1	.	0.35

Later entries.
compound	AID504770	Ba CapD inh
Cc1cnc(C(=O)OCC(=O)N(C)c2ccccc2)cn1	1	.
CCOC(=O)c1sc2nc(SCC#N)n(Cc3ccco3)c(=O)c2c1C	.	4.04
CC1=C(C(=O)OCCOc2ccccc2)C(c2cc3c(cc2Cl)OCO3)C2=C(CCCC2=O)N1 (centres undefined)	.	4.07
Cc1nc2c(Cl)c(Cl)ccc2s1	-0.5	0.58
Cn1ccnc1SCCS(=O)(=O)c1ccccc1	-0.7	0.16
Cc1ccc(NC(=O)c2ccc3snnc3c2)cc1	0.05	-0.38
Cc1ccccc1CNC(=O)c1ccc(C2SCC(=O)N2Cc2ccccc2)cc1 (centres undefined)	.	-1.13
COc1cccc(C2=CC(c3cccc(OC)c3)n3ncnc3N2)c1 (centres undefined)	-0.55	0.025
COc1cc2[nH]c(=O)n(CCCC(=O)NC3CCCC3)c(=O)c2cc1OC	-0.05	-0.41
O=C(OCC(=O)c1c[nH]c2ccccc12)c1cncc(Br)c1	-1.5	.
CC1CCCCN1C(=O)CSc1nc(-c2ccccc2)cc(C(F)(F)F)n1 (centres undefined)	-0.15	-0.07
COc1ccc(NC(=O)c2ccc3nonc3c2)cc1	-0.7	-0.545
CC(C)CNc1n[nH]c(=S)s1	-0.1	.
CCCCOC(=O)c1ccc(-c2ccc(/C=c3\sc4nc5ccccc5n4c3=O)o2)cc1	.	0.2
Cc1cc(Sc2ccccn2)nc(N)n1	-0.1	0.8
O=C(O)Cc1c[nH]c2c(F)c(F)c(F)c(F)c12	.	0.055
C=CCOC(=O)C1=C(C)OC(N)=C(C#N)C1c1ccccc1Cl (centres undefined)	.	1.87
CC(C)Nc1cnn(C23CC4CC(CC(C4)C2)C3)c(=O)c1Cl	0.3	0.115
CCOC(=O)c1sc2nc(SCC#N)n(CCCN3CCCC3=O)c(=O)c2c1C	.	-0.705
CC(C)NC(=S)Nc1cccc(C(=O)O)c1	1.75	-1.28
CCc1ccc(NC(=O)C2CCN(c3nnc(-n4cccc4)s3)CC2)cc1	-0.4	0.045
COc1cc(/C=N/n2c(=S)[nH]nc(C)c2=O)ccc1OCC(=O)N1CCOCC1	0.4	.
Nc1c(C(=O)O)sc2nc(-c3ccccc3)cc(C(F)(F)F)c12	0.7	0.12
O=S(=O)(Nc1ccccc1O)c1ccc2ccccc2c1	2.1	-0.025
O=C(Nc1ccc(N=Cc2ccccc2O)cc1)c1ccccc1O	-0.3	-0.625
COC(=O)C1=CN(C2CC2)C=C(C(=O)OC)C1c1ccsc1	0.05	.
CN1C(=O)N(C)C2(c3ccccc3)NN3C(=O)CSC3=NC12c1ccccc1 (centres undefined)	0.05	0.705
CC1CC2CC(=O)CC(C1)C2 (centres undefined)	0.65	0.05
CCOC(=O)C1=C(C)NC(=O)C(C(N)=O)C12CCCCC2 (centres undefined)	2.35	-0.66
C1CN2CN3CCN(CN1C3)C2	-2.4*	-0.215

Some values from the list:
Reading for O=C(Nc1ccc(N=Cc2ccccc2O)cc1)c1ccccc1O under Ba CapD inh: -0.625
Reading for CC(C)Nc1cnn(C23CC4CC(CC(C4)C2)C3)c(=O)c1Cl under Ba CapD inh: 0.115
Reading for CN1C(=O)N(C)C2(c3ccccc3)NN3C(=O)CSC3=NC12c1ccccc1 (centres undefined) under Ba CapD inh: 0.705
Reading for Cc1ccc(NC(=O)c2ccc3snnc3c2)cc1 under AID504770: 0.05
Reading for Cc1ccccc1CNC(=O)c1ccc(C2SCC(=O)N2Cc2ccccc2)cc1 (centres undefined) under Ba CapD inh: -1.13

Back to the main list, repeating the two entries before the break.
compound	AID504770	Ba CapD inh
CCOC(=O)C1=C(C)NC(=O)C(C(N)=O)C12CCCCC2 (centres undefined)	2.35	-0.66
C1CN2CN3CCN(CN1C3)C2	-2.4*	-0.215
CCCC(=O)NC(C)c1nc2ccccc2n1C(C)C (centres undefined)	0.95	0.2
O=C(Nc1c(-c2ccccc2)nc2ccccn12)c1cccs1	.	-0.18
O=C(N/C=C/n1cnc2cc(C(F)(F)F)ccc21)c1cccs1	-0.55	-0.715
C=CCn1c(SCC(=O)NCc2ccc3c(c2)OCO3)nnc1-c1ccccc1F	-2.05	.
CCCSc1ncc(Cl)c(C(=O)Nc2c(C)n(C)n(-c3ccccc3)c2=O)n1	-0.4	-0.33
O=C1C2CC=CCC2C(=O)N1c1cccc(O)c1 (centres undefined)	0.2	-0.455
O=c1cc(-c2cccs2)[nH][nH]1	-0.45	0.365
CC(C)(C)NC(=O)CN1CCN(CCC#N)CC1	-0.15	.
CCN(CC)C(=O)c1ccc(C(C)(C)C)cc1	1.95	.
CCN(CC)c1nc(-c2ccc(Cl)cc2)cc(C(F)(F)F)c1C#N	.	1.6
Clc1ccc(Oc2ccc(-c3ccnn3-c3ccccc3)c(Cl)c2)cc1	.	0.27
COc1cc2c(no[n+]2[O-])n2nnnc12	-1.9	-1.68
COc1ccc(NS(=O)(=O)N(C)C)c(OC)c1	0	-0.07
Cc1ccc(Nc2nc(=O)c3cccnc3s2)cc1	0.45	-0.82
O=C(O)C1CCCN(C(=O)c2cnn(-c3ccccc3)c2-n2cccc2)C1 (centres undefined)	-0.15	-0.055
COc1ccc(NC(C)=O)cc1NC(C)C(=O)N1CCCc2ccccc21 (centres undefined)	2.2	.
CC(c1ccccc1)N(Cc1ccccc1)C(=S)Nc1ccccc1 (centres undefined)	-0.7	25.9
O=c1cc(COc2ccccc2)nc2sccn12	-0.75	3.7
O=c1cccc2n1CC1CC2CN(C(=S)NC2CCCCC2)C1 (centres undefined)	.	-0.345
COc1ccccc1C(=O)N1CCOCC1	-0.5	-0.08
Nc1nc(N)c2c(n1)CCCC2	-0.75	0.335
FC(F)(F)c1ccc(SCc2ccc3nonc3c2)nc1	-0.65	-0.16
CCOc1ccc(-n2c(SC(C)C(=O)NC(N)=O)nc3ccccc32)cc1 (centres undefined)	-0.95	.
COC(=O)c1c(NC(=S)N(C)Cc2c(C)nn(C)c2C)sc2c1CCC2	1.3	-0.62
O=C(CCN1CCOCC1)Nc1ccc(S(=O)(=O)Nc2cc(Cl)cc(Cl)c2)cc1	-0.05	0.3
CCCn1c(C)cc(/C=C(\C#N)C(=O)OCn2nnc3ccccc3c2=O)c1C	3.6	.
CC1=C(C(=O)N2CCN(c3ccccc3)CC2)C2(CCN(S(C)(=O)=O)CC2)OC1=O	-0.05	1.2
CN(C)C(Cc1ccccc1)C(=O)c1cccn1C (centres undefined)	0.25	.
O=C(CSc1nc2ccsc2c(=O)n1NC(=O)c1ccccc1)NCc1ccco1	0.65	-0.2
O=C(CCN1C(=O)c2ccccc2C1=O)NCCc1ccccc1	0.1	1.33

Single records (already shown). Order of screens: AID504770 | Ba CapD inh
CC(C)(C)NC(=O)CN1CCN(CCC#N)CC1 across the screens: -0.15 | .
COc1ccc(NS(=O)(=O)N(C)C)c(OC)c1 across the screens: 0 | -0.07

Random draw from the library, and some 0.37% of all compounds hit somewhere here.
